High-throughput results deposited in PubChem BioAssay by several laboratories.
eIF4H FP inh = inhibitors of RNA binding by human eIF4H. inhibition, % at 35 µM. AID 2012. actives 0.94% (n = 290,000). Q15056. eIF4H fluorescence polarization binding assay;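 active = 50% or more with normal probe brightness, or confirmed in later tests; inconclusive = above 50% with abnormal brightness, or retests that disagree; inactive = below 50% or failed in later tests; about a fifth of its hits are not listed in these tables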;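 also: calls also rest on retests at 20 µM and on dose response follow-up; 0% = protein and probe with vehicle and 100% = probe without protein; strong numbers were not always called active; many hits fall short of the cut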
CSC inhib = blocks cancer stem cells; cancer stem cell-like cells viability, luminescence; inhibition, % at 7.5 µM; actives 1.1% (n = 300,000);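 active = mean at 75% or more and at least half the replicates too; inconclusive = mean and replicates disagree; tested in HMLE shEcad cells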;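 also: 0% = median of negative and 100% = median of positive control wells; the first replicate is given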
UUG fidelity = yeast start codon fidelity modulation; S. cerevisiae UUG-firefly luciferase reporter, luminescence/redox ratio; activity score, % at 18.7 µM; actives 0.13% (n = 350,000); AID 602363;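 active = replicate mean at a twofold rise or more, about +100% in these data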;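 also: firefly luciferase made from a UUG start codon reports start codon fidelity; reporter light over untreated wells divided by growth signal over untreated wells; some hits fall short of that in this replicate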
Rce1 inh = blocks yeast Ras-converting enzyme | yeast membranes, quenched prenylated peptide cleavage fluorescence | Q03530 | actives 0.27% (n = 290,000) | AID 2563 | calls only;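 active = fall in fluorescence gain of 50% or more versus controls, with final raw signal at or below 3038400; inconclusive = same 50% fall but final raw signal above 3038400; inactive = fall in fluorescence gain under 50%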;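 also: plate controls were neutral control wells for no effect and wells lacking membranes for full effect; tested at 10 µM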
MT1-MMP act inh = MT1-MMP (human) activation inhibition. HT1080 RFP-PRO-GFP cells, GFP/RFP ratio fluorescence, overnight; percent of plate control window, DMSO zero. GFP/RFP ratio change, % at 20 µM. actives 0.061% (n = 360,000). AID 651647;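 active = GFP/RFP ratio change of at least 30% with cell ATP level not reduced by more than half and red fluorescence within 50% of control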; also: strong numbers were not always called active
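Assay system: HT1080 RFP-PRO-GFP cells | Dosing: 20 µM single dose, 1% DMSO | Incubation: Cells overnight before dosing, compound overnight, 37 °C, 5% CO2 | Evaluation: GFP/RFP fluorescence ratio | Control set: DMSO-only wells and HT1080 RFP-L50D-GFP cell wells as references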
PABP FP inh = blocks human PABP binding to poly(A) RNA | P11940 | fluorescence polarization | inhibition, % at 35 µM | actives 1% (n = 290,000) | AID 2014;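 active = 50% or more with normal probe brightness, or confirmed in later tests; inconclusive = above 50% with abnormal brightness, or retests that disagree; inactive = below 50% or failed in later tests; about a fifth of its hits are not listed in these tables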;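 also: calls also rest on retests at 20 µM and on dose response follow-up; controls were probe without protein and protein plus probe with vehicle; some compounds called inactive have numbers as strong as hits; many hits fall short of the cut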
Target sequence (P11940 whole entry, looked up): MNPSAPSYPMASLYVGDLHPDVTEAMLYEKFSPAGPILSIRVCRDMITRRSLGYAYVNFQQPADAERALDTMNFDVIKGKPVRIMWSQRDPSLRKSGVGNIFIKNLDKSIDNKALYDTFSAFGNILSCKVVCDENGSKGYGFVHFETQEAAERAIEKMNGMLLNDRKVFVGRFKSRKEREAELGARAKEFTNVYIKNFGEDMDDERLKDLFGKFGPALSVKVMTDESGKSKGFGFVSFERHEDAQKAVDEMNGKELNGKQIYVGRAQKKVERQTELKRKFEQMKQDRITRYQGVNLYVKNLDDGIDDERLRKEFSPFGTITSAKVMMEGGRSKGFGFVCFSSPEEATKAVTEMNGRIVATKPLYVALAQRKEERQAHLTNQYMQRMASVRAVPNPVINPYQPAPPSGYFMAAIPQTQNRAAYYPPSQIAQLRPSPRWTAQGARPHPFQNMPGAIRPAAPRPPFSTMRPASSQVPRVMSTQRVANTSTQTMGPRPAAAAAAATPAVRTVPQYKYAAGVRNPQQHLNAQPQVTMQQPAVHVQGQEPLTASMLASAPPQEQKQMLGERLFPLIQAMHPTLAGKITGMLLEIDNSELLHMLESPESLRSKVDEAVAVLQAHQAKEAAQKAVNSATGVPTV
HIV Env fusion = inhibitors of HIV Env-mediated cell fusion; HeLa-JRFL Env/CEM21 cell fusion, luciferase; inhibition, % at 12.3 µM; actives 1.1% (n = 360,000); AID 651610;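 active = mean replicate inhibition score of at least 50 and every replicate individually at or above 50; inconclusive = only one of the two criteria met; inactive = mean below 50 and not all replicates reaching 50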;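 also: 0% = plate neutral controls and 100% = maraviroc near 300 nM; one replicate is shown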
eIF4H FP inh retest = second read-out of eIF4H FP inh, no call of its own (marks repeat the call); inhibition, %; compound at 20 µM; confirmation average;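 mean of two retest wells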
PABP FP inh retest = recorded beside PABP FP inh, whose call it bears; inhibition, %; compound at 20 µM; confirmation repeats;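 mean of two retest wells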
MT1-MMP act inh RFP = recorded beside MT1-MMP act inh, whose call it bears; RFP signal change, %; measured here: RFP expression control read;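 0 = vehicle wells; hits needed this value within 50% of zero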
Numbers without * were called inactive; i = inactive; ? = inconclusive; nt = no result given.

SMILES	eIF4H FP inh	CSC inhib	UUG fidelity	Rce1 inh	MT1-MMP act inh	MT1-MMP act inh RFP	PABP FP inh	HIV Env fusion	others
CCCSc1cc(NCCOC(C)=O)c([N+](=O)[O-])c2nonc12	95	-11	nt	i	1	0	4	-4	eIF4H FP inh retest=4;PABP FP inh retest=-9
CCOc1ccc(NS(=O)(=O)c2ccc(C(=O)NC3CCN(Cc4ccccc4)CC3)cc2)cc1	nt	-12	-14	i	-4	-9	nt	-8
Cn1nc(CC(=O)NC2CCCCC2)c2ccccc2c1=O	6	nt	nt	i	-3	-6	9	nt
COc1c(C)oc2cc(O)ccc2c1=O	18	-24	nt	i	-1	5	?	-8
O=C(NC1CCCN(Cc2ccc(Cl)cc2)C1)C1CCC1 (stereo not given)	14	6	-9	i	1	-3	-11	-9
COc1ccc(/C=N/NS(=O)(=O)c2ccc(F)cc2)cc1CN1CCSCC1	-9	-6	-28	nt	0	1	-11	7
Cc1nc2sc(C(c3cccc(F)c3)N3CC(C)OC(C)C3)c(O)n2n1 (stereo not given)	-2	18	-15	i	1	1	0	nt
COc1ccc(C(C)=O)cc1CC(=O)N(Cc1ccccc1)c1ccccc1	-6	-9	-6	i	0	0	-11	8
NC(=O)CC(NC(=O)Cc1cccc2ccccc12)c1ccc(NCc2ccc(F)cc2)c([N+](=O)[O-])c1 (stereo not given)	-12	?	11	i	12	-2	-6	nt
Cc1c(CCC(=O)NCCCn2ccnc2)c(=O)oc2c(C)c3occ(C(C)(C)C)c3cc12	0	-2	-22	i	-2	-9	-1	11
O=C(CCn1c(=S)[nH]c2ccccc2c1=O)Nc1ccc(F)cc1	-17	-14	nt	i	3	0	-12	-7
O=C(C1CC1)N1CCc2cc(S(=O)(=O)NCC3COc4ccccc4O3)ccc21 (stereo not given)	-3	-13	2	i	-5	-2	11	nt
O=C1COc2ccc(C(=O)COc3ccc([N+](=O)[O-])cc3)cc2N1	7	-10	nt	i	1	4	11	-3
CC(C)c1ccc(NC2CCCN(C(=O)CSc3nncn3C)C2)cc1 (stereo not given)	-14	-7	-16	i	2	3	2	-1
O=C1CC(N2CCN(c3cccc(C(F)(F)F)c3)CC2)C(=O)N1c1ccccc1 (stereo not given)	-3	-10	5	i	2	10	4	27
Cc1cc(C)n2nc(CNS(=O)(=O)c3ccc(F)cc3)nc2n1	-7	-5	-17	i	0	7	-17	-6
O=C(O)CCCN1C(=O)/C(=C\C(Cl)=C\c2ccccc2)SC1=S	1	79*	-18	i	-6	-7	21	-104
COCc1ccc(C(=O)N2CCCC(C(=O)c3cccc(C(F)(F)F)c3)C2)o1 (stereo not given)	-5	-6	nt	i	-3	-2	3	20
CC(C)CC1NC(=O)N(CC(=O)Nc2cc([N+](=O)[O-])ccc2F)C1=O (stereo not given)	nt	-2	-9	nt	-1	3	nt	3
CCN1C(=O)NC(c2ccccc2)C1=O (stereo not given)	nt	-15	7	nt	4	7	nt	13
COc1cc(C(C(=O)NC2CCCCC2)N(C(=O)Cc2c[nH]c3ccccc23)c2ccc(C)cc2)cc(OC)c1OC (stereo not given)	-2	7	nt	i	-7	-5	15	-66
COc1ccc(NC(=O)CSc2n[nH]c(=O)n2Cc2ccccc2)cc1Cl	-2	-6	0	i	4	-3	4	9
CCc1ccc(NC(=O)c2cnn3c(C(F)F)cc(C)nc23)cc1	0	3	-3	i	1	3	-5	-10
O=C(Nc1ccncc1)c1cc(-c2ccccn2)nc2ccccc12	-6	-5	-33	i	-7	-2	-40	-15
COc1cnc(-c2ccccn2)nc1Oc1c(C)cccc1C	3	-5	nt	i	3	5	-2	-8

Continued (four carried over from the part before).
SMILES	eIF4H FP inh	CSC inhib	UUG fidelity	Rce1 inh	MT1-MMP act inh	MT1-MMP act inh RFP	PABP FP inh	HIV Env fusion	others
COc1ccc(NC(=O)CSc2n[nH]c(=O)n2Cc2ccccc2)cc1Cl	-2	-6	0	i	4	-3	4	9
CCc1ccc(NC(=O)c2cnn3c(C(F)F)cc(C)nc23)cc1	0	3	-3	i	1	3	-5	-10
O=C(Nc1ccncc1)c1cc(-c2ccccn2)nc2ccccc12	-6	-5	-33	i	-7	-2	-40	-15
COc1cnc(-c2ccccn2)nc1Oc1c(C)cccc1C	3	-5	nt	i	3	5	-2	-8
Cc1ccc(Nc2nc(-c3cccnc3)cs2)cc1C	0	10	nt	i	-4	-5	-6	-161
COc1ccc2[nH]c(=S)[nH]c2c1	-7	-9	0	i	-3	0	-1	nt
COc1cc(C)ccc1NC(=O)c1ccc(S(=O)(=O)N2CCOCC2)cc1	-1	8	-24	i	3	-2	-6	-50
CCOc1cccc(-c2cc(=O)[nH][nH]2)c1	6	6	-8	i	2	1	-1	nt
CC(C)c1nnc(NC(=O)c2sc3ccccc3c2Cl)s1	-3	4	nt	i	2	6	0	nt
CCCC1CCC(=NNC(=S)NCCc2ccccc2)CC1 (stereo not given)	2	-4	nt	i	-3	4	-9	5
C=CCNC(=O)c1cc(=O)c2ccccc2o1	-8	-4	nt	i	1	4	-3	nt
Cc1cc(=O)[nH]c(S)c1C#N	8	-3	nt	i	nt	nt	2	nt
COc1ccc(-n2nc(C(=O)N(C)C3CCCCC3)c3ccccc3c2=O)c(OC)c1	0	4	-1	i	1	8	-2	10
COc1ccc(/C=C2/SC(=O)N(CCC(=O)Nc3ccccc3)C2=O)cc1OC	-3	1	-3	i	-19	-28	-14	-4
COc1ccc(S(N)(=O)=O)cc1C(=O)NCCCN1CCN(c2cccc(Cl)c2)CC1	-12	6	-12	i	1	5	-2	nt
Cc1ccc2nc(NCc3ccccc3)c(C=NCc3ccccc3)c(=O)n2c1	7	6	-6	i	-1	6	7	-7
COc1ccc(OC)c(NC(=O)COC(=O)C2CCN(C(=O)c3ccc(Cl)cc3)CC2)c1	4	-20	nt	i	1	1	21	4
O=C(COC(=O)CNC(=O)c1ccccc1)NCCCc1ccccc1	nt	-16	-15	nt	1	2	nt	-1
CCOc1ccccc1NC(=O)CSc1nnc(C2CC2)n1CC	4	25	-18	i	5	3	4	-8
CCOC(=O)C1CCN(C(=O)c2ccc(OC)cc2OC)CC1	-4	-7	-18	i	2	7	5	nt
COC(=O)c1[nH]c(C)c(/C(O)=C2\C(=O)C(=O)N(CCN3CCOCC3)C2c2cccs2)c1C (stereo not given)	-1	15	nt	i	2	3	10	nt
COc1ccc(C(=O)/C=C/Nc2ccc(NC(C)=O)cc2)cc1OC	-4	2	-2	i	-3	7	6	-3
CCOC(=O)n1cc(C(=O)c2ccccc2O)cn1	-4	-2	-20	i	-4	2	2	1
COc1ccccc1CNC(=O)c1cccc2c1C(=O)N(Cc1cccnc1)C2	4	-14	-17	i	0	1	0	0
O=C(COC(=O)c1cc2ccccc2cc1O)NCc1ccccc1	nt	-22	-6	nt	2	2	nt	-14
O=C(NC1CCCC1)C(c1ccc(Cl)cc1)N(C(=O)c1csnn1)C1CC1 (stereo not given)	-6	-12	-11	nt	-4	2	8	-6
Cc1ccccc1C(=O)N1CCN(c2ccc(NC(=O)c3cccnc3)cc2)CC1	-5	-3	nt	i	-2	-3	1	25
CNC(=S)NNC(=O)c1cccn(Cc2cccc(Cl)c2)c1=O	4	-3	-17	i	1	6	7	0
C#CCOCCOCCOCCNc1nc(N2CCOCC2)nc(N2CCN(C(=O)CCCCCCCCCCNC(=O)[C@H]([C@@H](C)CC)n3cc(CCCCN=C(N)N)nn3)CC2)n1	nt	22	-7	nt	-5	6	nt	-34

Next part
SMILES	eIF4H FP inh	CSC inhib	UUG fidelity	Rce1 inh	MT1-MMP act inh	MT1-MMP act inh RFP	PABP FP inh	HIV Env fusion	others
CC(=O)Nc1nc2cc3c(cc2s1)OCCO3	5	10	-34	i	5	2	3	-6
C=CCn1c(C(C)NC(=O)c2ccccc2)n[nH]c1=S (stereo not given)	-7	-6	-21	i	10	2	4	nt
COCc1c(C(=O)NC2CCCCCC2)oc2ccccc12	-7	-7	nt	i	2	1	-5	-9
COc1ccc(Nc2ccc(OC)cc2)cc1	12	-8	-12	i	38*	30*	10	15
CCCn1c(N)c(C(=O)COC(=O)/C=C/c2ccc(OC(F)F)c(OC)c2)c(=O)[nH]c1=O	nt	-2	19	nt	-2	-11	nt	14
CCOC(=O)C1=CN(Cc2cccc(F)c2)S(=O)(=O)N(CC)C1c1ccc(F)c(Cl)c1 (stereo not given)	nt	nt	-8	nt	-9	-15	nt	-4
COc1ccc(NC(=O)c2cc(-c3ccco3)on2)cc1	1	nt	-18	i	3	6	-6	-16
Cc1ccc([N+](=O)[O-])cc1N(CC(=O)NC1CCCC1)S(C)(=O)=O	-5	0	-16	i	-2	-1	-6	3
CCc1ccc(NC(=O)COC(=O)/C(=C/c2ccccc2OC)c2ccccc2)cc1	-5	2	nt	i	2	0	-5	5
CSc1nc2sc3c(c2c(=O)n1C)CCC(C)C3 (stereo not given)	-17	-12	4	i	-4	2	8	nt
Cc1ccc(S(=O)(=O)N2CCN(C(=O)CCC(=O)NCc3cccc(C(F)(F)F)c3)CC2)cc1	nt	6	nt	i	1	0	nt	15
COc1ccccc1NC(=O)C(C)OC(=O)Cn1cnc2c1c(=O)n(C)c(=O)n2C (stereo not given)	nt	-5	nt	i	0	3	nt	-4
CC1(C)OC(C(=O)NC2CCCCC2)C(C(=O)NC2CCCCC2)O1 (stereo not given)	1	nt	nt	i	0	-1	-11	nt
O=C(CN1CCCCC1)NCC(=O)Nc1ccc(F)c(F)c1F	nt	-11	9	nt	2	3	nt	-7
Cc1ccc(CNC(=O)c2ccccc2NC(=O)CN2CC(C)OC(C)C2)cc1 (stereo not given)	2	-6	-16	i	-3	-1	11	-4
CC(=O)C(C)Oc1ccc2c3c(c(=O)oc2c1C)CCCC3 (stereo not given)	-2	-4	4	i	2	-5	-6	-23
Cc1ccsc1C(=O)NC(C)c1ccccc1 (stereo not given)	-6	-15	-3	i	0	4	-8	-29
CCCC(C(=O)Nc1ccncc1)c1ccccc1 (stereo not given)	-2	-9	-1	i	4	-2	10	3
CCC(C)[C@H](NC(=O)[C@@H]1CSC2c3ccccc3C(=O)N21)C(=O)NCc1ccco1 (stereo not given in full)	-2	-8	-13	i	-3	3	2	-4
Cc1cc(C)c(OCC(=O)N/N=C/c2ccc3c(c2)OCO3)c(C)c1	10	52	nt	i	-8	-12	16	nt
CCn1nc(C)c(CNC(=O)C2CCC(=O)N(Cc3ccc(Cl)cc3)C2)c1C (stereo not given)	-9	-18	-3	i	-4	-1	-6	3
CCOCCCn1c(=N)c(S(=O)(=O)c2ccc(C)cc2)cc2c(=O)n3cc(C)ccc3nc21	?	-5	-19	i	-1	4	19	5	PABP FP inh retest=34
O=C1CSC(=S)N1/N=C/c1cccnc1	-8	-6	-20	i	10	3	-2	-1
CC(C)CNC(=O)c1ccccc1NC(=O)CSCc1ccccc1	-3	0	-1	i	1	2	-4	nt
O=C(Nc1ccc2oc(-c3cccnc3)nc2c1)c1ccc(Br)o1	15	-1	-11	i	0	8	-10	nt
CC1CCN(c2cc(N3CCN(C(=O)c4ccc(F)c(F)c4)CC3)c([N+](=O)[O-])cc2F)CC1	4	32	nt	i	8	-3	-4	25
CCCCn1c(N)c(Sc2ccc(C)cc2)c(=O)[nH]c1=O	-2	-8	-13	i	6	3	2	nt
